High-throughput results as filed in PubChem.
VACV Venus inh – qHTS for Stage-Specific Inhibitors of Vaccinia Orthopoxvirus: Venus Reporter Primary qHTS; Vaccinia virus Venus reporter expression, fluorescence; Potency, µM (highest dose often 36.5 µM), without a hit: top-dose activity change, negative = inhibition, hits mostly inhibitors; 330,000 compounds, 0.46% hits; AID 720580, 2013; active means well fitted inhibition curve with a large enough effect; inconclusive means small, poorly fitted or top-dose-only effect; inactive means no such curve, though single readings can be large or run the other way; tested in A549 cells; further: nearly all actives have a fitted effect of over 30% in size; inactives centre near -10
VACV mCherry inh – qHTS for Stage-Specific Inhibitors of Vaccinia Orthopoxvirus: mCherry Reporter Primary qHTS | Vaccinia virus mCherry reporter infection, fluorescence; about a quarter of the inactives have no number | Potency, µM (titrated, usually from 36.5 µM), for the others: at the highest dose activity change, negative = inhibition, actives largely listed as inhibitors | 310,000 compounds, 0.63% hits; active = well fitted inhibition curve with a large enough effect; inconclusive = small, poorly fitted or top-dose-only effect; inactive = no such curve, though single readings can be large or run the other way; tested in A549 cells; further: nearly all actives have a fitted effect of over 35% in size; inactives centre near -10
Starred values were filed as active, the others as inactive; i = inactive; ? = inconclusive; · = no result given; [ ] = another dose, or the depositor's remark. On the % scale 0 is the no-effect control and ±100 the full control effect; potency means the concentration at half of the fitted maximal effect. This is a random part of the collection; any-hit rate near 0.86%.

| SMILES | VACV Venus inh | VACV mCherry inh |
| --- | --- | --- |
| O=C(CSc1nnc(-c2ccc(F)cc2)c2ccccc12)Nc1ccccc1Cl | -8% | -13% |
| Cc1c(C(=O)N(C)c2ccc(Cl)cc2)cnn1-c1ccccc1 | -22% | 16% |
| COc1ccccc1/C=C(/C#N)C(=O)O | -10% | -2% |
| CCOC(=O)c1ccc(-c2c(-c3ccccc3OC)oc3ccccc23)cc1F | 5% | i |
| CCN(CC)C(=O)COc1ccc2c3c(c(=O)oc2c1C)CCCC3 | -30% | -3% |
| Cc1nc2ccccc2cc1C(=O)N/N=C/c1cccs1 | -8% | -12% |
| CCOC(=O)C1=C(COC(=O)COc2ccccc2C=O)NC(=O)NC1C (stereo not drawn) | -1% | -12% |
| COc1ccc(NC(=O)c2[nH]c(C)c(C(C)=O)c2C)cc1S(=O)(=O)N1CCOCC1 | -7% | -12% |
| Cc1ccc(-n2ncc3c(NC4CCCCC4)ncnc32)cc1 | -6% | -7% |
| COc1cccc(/C=C2\SC(=S)N(CCC(=O)NCCc3ccc(O)cc3)C2=O)c1 | ? | 11µM* |
| COc1ccc(NC(=O)Nc2ccccc2OCc2cc(=O)n3ccccc3n2)c(OC)c1 | -16% | -1% |
| CCOc1ccccc1CNC(=O)c1ccc2c(c1)sc1nc(-c3cccc(OC)c3)cn12 | -15% | -13% |
| CC(=NCC1CCNCC1)C1=C(O)CC(C)(C)CC1=O | -10% | · |
| CCc1nc2nc(C)c(NS(=O)(=O)c3cccs3)c(=O)n2[nH]1 | 6% | -8% |
| O=S(=O)(/N=S1\CC=CCN1S(=O)(=O)c1ccccc1)c1ccccc1 (stereo not drawn) | -15% | -9% |

The final 5 records of the part above lead into the next.
| SMILES | VACV Venus inh | VACV mCherry inh |
| --- | --- | --- |
| COc1ccc(NC(=O)Nc2ccccc2OCc2cc(=O)n3ccccc3n2)c(OC)c1 | -16% | -1% |
| CCOc1ccccc1CNC(=O)c1ccc2c(c1)sc1nc(-c3cccc(OC)c3)cn12 | -15% | -13% |
| CC(=NCC1CCNCC1)C1=C(O)CC(C)(C)CC1=O | -10% | · |
| CCc1nc2nc(C)c(NS(=O)(=O)c3cccs3)c(=O)n2[nH]1 | 6% | -8% |
| O=S(=O)(/N=S1\CC=CCN1S(=O)(=O)c1ccccc1)c1ccccc1 (stereo not drawn) | -15% | -9% |
| O=C(Cn1ncc2ccccc21)N1CCN(c2cccc(C(F)(F)F)c2)CC1 | -15% | -26% |
| CCOC(=O)C1(O)Oc2cc(OC)cc(OC)c2C(=O)C1c1ccccc1 (stereo not drawn) | -11% | -6% |
| Cc1ccccc1C(=O)NC1(C(F)(F)F)C(=O)Nc2c1c(=O)[nH]c(=O)n2CCc1ccccc1 (stereo not drawn) | -11% | 6% |
| O=C(N/N=C\c1ccccn1)C1c2ccccc2Oc2ccccc21 | 6% | 0% |
| CC(C)(C)CC(=O)Nc1nc(C(N)Cc2ccc(C(F)(F)F)cc2)cs1 (stereo not drawn) | ? | ? |
| Cc1cc(C)cc(N(C(C)C(=O)N2CCOCC2)S(C)(=O)=O)c1 (stereo not drawn) | -2% | -6% |
| O=C(CC(c1ccccc1)(c1ccccc1)c1ccccc1)N[C@@H](Cc1ccccc1)C(=O)O | -7% | ? |
| COCCN(C(=O)COC(=O)c1cc(C)oc1C)c1c(N)n(Cc2ccccc2)c(=O)[nH]c1=O | -4% | i |
| Cc1ccccc1C(=O)N1Cc2cnnn2-c2ccccc2C1C#N (stereo not drawn) | -4% | -4% |
| CC(C)NC(=O)CSc1nnc(COc2ccccc2Cl)o1 | -10% | · |
| Cc1ccc(N2C(=O)c3n[nH]c(C)c3C2c2ccc(Cl)cc2)cc1 (stereo not drawn) | -16% | -19% |
| Cc1ccc(N(C)C(=O)C2CCN(S(=O)(=O)c3ccc4c(c3)CCCN4C(=O)C3CCC3)CC2)cc1 | -15% | -23% |
| CC(C)C[C@@H](CN)NC(=O)c1nc[nH]c1C(=O)N[C@@H](C)C(=O)CNC[C@H](CC(C)C)NC(=O)c1nc[nH]c1C(=O)N[C@@H](Cc1ccccc1)C(=O)O | -1% | ? |
| Cc1ccc(Nc2ncccc2C(N)=O)cc1 | 21% | i |
| COc1ccc(-n2ncc(C(=O)NC3CC3)c2C2CCN(C(=O)OC(C)(C)C)CC2)cc1 | -10% | -24% |
| Cn1c(CCC(=O)Nc2ccc(F)cc2)nc2cc(S(=O)(=O)N3CCOCC3)ccc21 | 6% | -5% |
| COc1cccc(Cc2nc3cccnc3n2C2CCN(C(=O)c3n[nH]c4c3CCCC4)CC2)c1 | 1% | -13% |
| CCOc1ncccc1C(=O)OCC(=O)Nc1ccc(C)c(S(=O)(=O)N2CCOCC2)c1 | -17% | -1% |
| O=C(Cc1ccc(Cl)cc1)Nc1ccc2oc(-c3ccccc3)nc2c1 | -1% | 4% |
| CC(=O)Nc1ccc(NC(=O)C2CCN(c3c(NC(C)=O)c(C)nn3-c3ccccc3)CC2)cc1 | -10%[7.34 µM] | -12%[7.34 µM] |
| COc1ccccc1NC(=O)COc1cccc2c1CCNC2=O | -3% | -5% |
| CCn1nc(C(C)C(=O)O)c2ccccc2c1=O (stereo not drawn) | -4% | -2% |
| CC(OC(=O)CCC(=O)c1cccs1)C(=O)Nc1ccc(Cl)cn1 (stereo not drawn) | -4% | -14% |
| Fc1ccc(CN2CCc3nc(N4CCN(c5ccccc5F)CC4)ncc3C2)c(F)c1 | -27% | -22% |
| Cc1ccc2oc3c(c(=O)c2c1)C(c1cccc(O)c1)N(CCCN1CCOCC1)C3=O (stereo not drawn) | -11% | -14% |
| COCCN(C(=O)COC(=O)CCc1ccccc1OC)c1c(N)n(Cc2ccccc2)c(=O)[nH]c1=O | -18% | i |
| O=C(COC(=O)CNC(=O)c1ccc(Cl)cc1)Nc1ncc(C(F)(F)F)cc1Cl | -1% | -11% |
| CC(C(=O)N1CCOCC1)N1c2cccc3cccc(c23)S1(=O)=O (stereo not drawn) | -10% | -3% |
| CN(C)c1cc2c(c(N(C)C)c1)C(=O)c1ccccc1C2=O | ? | -26% |
| O=C1Nc2ccccc2C1=Nc1ccc2[nH]c3ccccc3c2c1 | 5% | -12% |
| CCN1CCN(CCCNC(=O)CNC(=O)c2nn(-c3ccc(OC)cc3)c(=O)c3ccccc23)CC1 | -12% | i |
| C/C(CC(=O)Nc1ccc(Cl)c(C(F)(F)F)c1)=N\NC(=O)c1ccccc1O | ? | 10µM* |
| O=C(COc1ccccc1N1C(=O)c2ccccc2C1=O)c1ccc(Cl)cc1 | -21% | -25% |
| Cc1nc2ccc(NC(=O)Cc3ccccc3F)cc2s1 | -13% | i |
| CSCC[C@H](NC(=O)COc1cc2c(c3oc(=O)c(C)c(C)c13)CCC(C)(C)O2)C(=O)O | -8% | i |
| COCCCNC(=S)NNC(=O)c1ccoc1C | -8% | -6% |
| CC(=O)N1c2ccc(S(=O)(=O)N3CCC(C(=O)N4CCN(c5cc(Cl)ccc5C)CC4)CC3)cc2CC1C (stereo not drawn) | -23% | -16% |
| COc1ccc(Cl)cc1NC(=O)CN(C)CC(=O)Nc1ccc(S(N)(=O)=O)cc1 | -13% | i |
| CC1CCCC(NC(=O)CSc2nnnn2C)C1C (stereo not drawn) | -10% | -17% |
| CCSc1nnc(NC(=O)CSc2ncccn2)s1 | -14% | -11%[1.46 µM] |
| CC(C)C[C@@H](NC(=O)C1CCC(CNC(=O)[C@H](Cc2ccccc2)NC(=O)OC(C)(C)C)CC1)C(=O)O (stereo partly drawn) | 4% | i |
| Cc1cc(C)c(S(=O)(=O)N2CCOC2CNC(=O)C(=O)NCCCN2CCCC2=O)c(C)c1 (stereo not drawn) | -18% | -13% |
| CCN(CC)CCNC(=O)c1ccc(NC(=O)CC(NC(=O)c2ccccc2Cl)c2ccccc2)cc1 (stereo not drawn) | -20% | -25% |
| CCCCS(=O)(=O)Nc1ccc(C)cn1 | -3% | -11% |
| COC(=O)C1(C)CN(S(=O)(=O)c2ccc(C)cc2)c2cc(OC)ccc2C1=O (stereo not drawn) | ? | ? |
| O=C(C[n+]1cccc(C(=O)N/N=C/c2cccc([N+](=O)[O-])c2)c1)c1ccccc1 | 2% | -15% |
| CCc1ccc(N(CC(=O)NC2CCCC2)C(=O)CCC(=O)Nc2cc(C)on2)cc1 | -8% | -7% |
| COC(=O)C(O)(CC(=O)Nc1ccc(OC(F)(F)F)cc1)C(F)(F)F (stereo not drawn) | -1% | -13% |
| Cc1cc(Nc2ccccc2)n(-c2ccc(C(=O)O)cc2)n1 | 1% | i |
| Cc1ccc2c(c1)N(C(=O)CCC(=O)NCc1ccccc1Cl)CC(C)O2 (stereo not drawn) | -9% | -3% |
| CCc1ccc(CN2C(=O)c3ccccc3C2C(=O)NCC2CCCO2)cc1 (stereo not drawn) | -2% | i |
| COc1cc(CNCc2ccccn2)ccc1OCC(N)=O | -16% | i |
| Cc1cn(CCOc2ccc(Cl)cc2)c(=O)[nH]c1=O | -20% | -2% |
| Cc1cc(C)c(S(=O)(=O)N2CCOC2CNC(=O)C(=O)NCCCN2CCOCC2)c(C)c1 (stereo not drawn) | -10% | -1% |
| CCc1ccc(S(=O)(=O)NCc2cn3c(C)csc3n2)s1 | -23% | -14% |
| Cc1cc(=O)[nH]c(SCC(=O)Nc2ccc(S(N)(=O)=O)cc2)n1 | 2% | i |
| CCCCP(=O)(O)CCC(=O)O | -11% | · |
| O=C(NCc1ccco1)C(c1ccco1)N(C(=O)Cn1nnc2ccccc21)c1ccc2c(c1)CCC2 (stereo not drawn) | -21% | · |
| Cc1ccc(S(=O)(=O)N(C)c2ccc(C(=O)NCC3(N(C)C)CCCCC3)cc2)cc1 | -6% | -11% |
| Cc1ccc(C(=O)NNC(=O)/C=C\C(=O)O)cc1 | -19% | -12% |

The listing continues.
| SMILES | VACV Venus inh | VACV mCherry inh |
| --- | --- | --- |
| CCCCn1c(N)c(N(CCOC)C(=O)c2cccc(OCc3ccccc3)c2)c(=O)[nH]c1=O | -6% | -1% |
| O=S(=O)(Nc1ccc(-c2ccc3nncn3n2)cc1)c1cccc(F)c1 | -20% | -6% |
| Cn1cnc(S(=O)(=O)N2C[C@@H](O)COC[C@@H]3O[C@H](CC(=O)NC4CCC4)CC[C@H]32)c1 | -5% | -6% |
| COc1ccc([C@H]2C[C@H](O)[C@@H](n3cc(C4CC4)nn3)CN2C(=O)C2CCCCC2)cc1 | -16% | i |
| CCCc1ccc(OC(C)c2nc(-c3ccc(-n4cccc4)cc3)no2)cc1 (stereo not drawn) | -13% | -8% |
| CCOC(=O)/C=C/C(=O)Nc1ccc(S(=O)(=O)N2CCCCCC2)cc1 | -1% | -11% |
| COCCN(C(=O)CNC(=O)c1ccco1)C(C(=O)NC1CCCC1)c1ccc(OC)c(OC)c1 (stereo not drawn) | -5% | -8% |
| CC(=O)Nc1ccc(C(c2c(O)c3ccccc3oc2=O)c2c(C)n(C)n(-c3ccccc3)c2=O)cc1 (stereo not drawn) | -18% | -7% |
| CCc1ccc([C@@H]2C[C@H]3[C@@H](CN2S(=O)(=O)c2ccc(C)cc2)C(=O)C[C@@H](c2ccccc2)N3S(=O)(=O)c2ccc(C)cc2)cc1 | -10% | -8% |
| COc1ccc(N(C(=O)c2snc(C(N)=O)c2N)C(C(=O)NCc2ccc(F)cc2)c2ccc(O)cc2)cc1 (stereo not drawn) | 6% | -6% |
| CCOC(=O)/C=C/C(=O)OCC(=O)Nc1ccc(C)cc1 | -1% | -22% |
| COC(=O)/C=C/c1cc(O)ccc1O | -17% | -23% |
| O=C(NCCCN1CCCC1=O)c1ccc(NS(=O)(=O)c2cccc([N+](=O)[O-])c2)cc1 | -19% | -17% |
| COC(=O)c1ccc(NC(=O)CCc2c(C)nc3c(-c4ccccc4)c(C)nn3c2C)cc1 | -18% | -12% |
| O=C(O)/C(=C\c1ccc(-c2ccc(F)cc2)o1)c1ccccc1 | 2% | -1% |
| O=c1cccc2n1CC1CC2CN(Cc2c(F)cccc2Cl)C1 (stereo not drawn) | -12% | -16% |
| CCN1CCN(CCNC(=O)c2ccc(/C=C3/Sc4ccccc4N(Cc4ccccc4C)C3=O)cc2)CC1 | ? | ? |
| Cc1ccc(S(=O)(=O)N2CCN(c3nc(-c4ccncc4)nc4ccccc34)CC2)cc1 | -10% | -15% |
| Cc1cc(N2CCN(c3ccccc3)CC2)nc(NCc2ccccc2)n1 | -14% | -22% |
| Cc1ccc(S(=O)(=O)NCc2ccccc2)cc1C(=O)NC(C)c1ccc(S(N)(=O)=O)cc1 (stereo not drawn) | -11% | -18% |
| c1ccc(-c2ccc(OCCCn3cncn3)cc2)cc1 | -22% | -20% |

Profiles as entered above. Order of screens: VACV Venus inh, VACV mCherry inh
`COc1ccc(N(C(=O)c2snc(C(N)=O)c2N)C(C(=O)NCc2ccc(F)cc2)c2ccc(O)cc2)cc1` (stereo not drawn) is entered as 6%, -6%
`CCN1CCN(CCNC(=O)c2ccc(/C=C3/Sc4ccccc4N(Cc4ccccc4C)C3=O)cc2)CC1` is entered as ?, ?
`Cc1ccc(-n2ncc3c(NC4CCCCC4)ncnc32)cc1` is entered as -6%, -7%
`CC(=O)Nc1ccc(C(c2c(O)c3ccccc3oc2=O)c2c(C)n(C)n(-c3ccccc3)c2=O)cc1` (stereo not drawn) is entered as -18%, -7%
`Cc1nc2ccc(NC(=O)Cc3ccccc3F)cc2s1` is entered as -13%, i
